Rango complex inh – qHTS Assay for Inhibitors of Rango (Ran-regulated importin-beta cargo) - Importin beta complex formation | Potency, µM (series often up to 92.2 µM), for inactives: at the highest dose inhibition of complex formation | Importin subunit beta-1 (Homo sapiens), Q14974 | hit rate 0.031% among 340,000 | Rango CFP/YFP FRET sensor + importin beta, 45 min; active = rising FRET ratio curve, often small or poorly fitted; inconclusive = mostly compound fluorescence or quenching in the first reads; inactive = flat curves in all reads;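 also: potency is read from the fitted curve at half-maximal effect; 0% = DMSO wells and 100% = buffer wells lacking importin beta; nearly all actives have a fitted effect of over 15% in size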
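FRET biosensor (snurportin 1 IBB flanked by EYFP and cerulean), 50 nM, with compound 5 min, then 0.125 microM importin beta in PBS, 1 mM DTT, 0.02% Tween-20, 0.1% BSA. CFP/YFP ratio read after 45 min at room temperature; pre-read flags interference.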
GLA inh pH 4.5 – qHTS Assay for Inhibitors of Human alpha-Galactosidase at pH 4.5; Alpha-galactosidase A (Homo sapiens), P06280; purified enzyme, 4-MU-alpha-Gal fluorescence, pH 4.5; activity change, negative = inhibition, % at 105 µM; 230,000 tested, under 10 active; AID 1467, 2008; inconclusive = small, poorly fitted or top-dose-only inhibition, or a rising curve; inactive = flat fitted curve, though single readings scatter; no compound was filed as active;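 also: 0% = full activity with enzyme and -100% = basal without enzyme; dose as in the result columns while the protocol names 77 µM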
Target sequence (P06280 whole entry, looked up): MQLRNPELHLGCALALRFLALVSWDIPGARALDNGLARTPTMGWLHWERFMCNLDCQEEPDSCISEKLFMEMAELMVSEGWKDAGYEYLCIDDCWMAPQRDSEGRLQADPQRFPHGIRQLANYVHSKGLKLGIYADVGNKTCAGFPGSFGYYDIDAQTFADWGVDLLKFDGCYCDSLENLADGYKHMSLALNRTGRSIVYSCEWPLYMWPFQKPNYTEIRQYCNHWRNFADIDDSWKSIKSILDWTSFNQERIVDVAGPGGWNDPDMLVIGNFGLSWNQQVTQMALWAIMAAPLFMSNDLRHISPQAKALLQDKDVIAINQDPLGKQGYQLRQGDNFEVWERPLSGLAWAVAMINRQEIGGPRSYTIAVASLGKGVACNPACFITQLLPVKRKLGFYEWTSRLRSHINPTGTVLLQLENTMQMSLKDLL
miR-21 reporter – qHTS Assay for Modulators of miRNAs and/orActivators of miR-21. HeLa miR-21 FLuc reporter, luciferase, 48 h. Potency, µM (doses to about 38.3 µM), without a hit: at the top dose reporter change, positive = more light. 340,000 tested, under 10 active; active = well fitted rising curve with a large enough effect; inconclusive = small, poorly fitted or top-dose-only effect; inactive = no such curve, though single readings can be large or run the other way;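 also: % of control where 0% means no effect; miR-21 action dims this reporter so a rising signal means less miR-21 action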
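HeLa cells endogenously expressing miR-21, stably carrying CMV-driven firefly luciferase with a downstream miR-21 binding site, 2000 cells/well. Titrations up to approximately 40 uM, 48 hours; luciferase luminescence read.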
Rango dissoc inh – qHTS Assay for Inhibitors of RanGTP induced Rango (Ran-regulated importin-beta cargo) - Importin beta complex dissociation | Snurportin-1 (Homo sapiens) + GTP-binding nuclear protein Ran (Homo sapiens) + Importin … | Biochemical FRET Rango-importin beta, RanGTP-induced dissociation | Potency, µM (top dose mostly 46.1 µM), inactives show top-dose activity change, negative = inhibition | hit rate 0.071% among 340,000; active means falling FRET ratio curve, often poorly fitted, with flat reads before Ran was added; inconclusive means other falling curves, or compound fluorescence or quenching; inactive means flat or rising ratio curve;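 also: potency is read from the fitted curve at half-maximal effect; % of control where 0% means no effect; nearly all actives have a fitted effect of over 45% in size; -100% = wells without RanGTP and RCC1; the record marks most hits as doubtful in a second field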
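Two FRET readings bracket the reaction: one 5 min after compound meets Rango–importin beta, another 45 min after RanGTP-RCC1 (0.6 uM Ran, 0.2 uM RCC1, 2 mM GTP) is added. Only the second defines inhibition.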
* marks the source's active call; other numbers are inactive results; ? = inconclusive; / = no result given.

No. | SMILES | miR-21 reporter | Rango dissoc inh
1 | COCCNC(=O)C(c1ccco1)N(C(=O)Cn1nnc2ccccc21)c1cc(C)ccc1C (stereo not given) | -5% | 19%
2 | COc1ccccc1CNC(=O)CNC(=O)c1ccc(Br)o1 | 0% | -5%
3 | CCOc1ccc(C2C(C#N)=C(N)SC(N)=C2C#N)c(OCC)c1 | -9% | -17%
4 | C=CCN1CCN(Cc2cnc(Cl)s2)CC1 | -7% | 1%
5 | Cc1ccc(N(C)S(=O)(=O)c2ccc3c(c2)NC(=O)C(C)S3)cc1 (stereo not given) | 10% | -4%
6 | Cc1ccc(CNC(=O)C2CCC(CNS(=O)(=O)c3cccc4cccnc34)CC2)cc1 (stereo not given) | -1% | 14%
7 | CNC(=S)Nc1cc(OC)c(NC(=O)c2ccco2)cc1OC | 1% | 8%
8 | Cc1onc(NC(=O)CSCC(=O)O)c1Br | -1% | 10%
9 | CCN1CCN(c2nc3ccccc3nc2NS(=O)(=O)c2ccc(NC(C)=O)cc2)CC1 | -3% | -6%
10 | CCCc1nnc(SCC(=O)Nc2ccccc2F)o1 | -25% | -7%

No. | GLA inh pH 4.5 | Rango complex inh
1 | 5 | -0.4%
2 | / | 4.6%
3 | 5 | ?
4 | -3 | 3.1%
5 | / | -0.8%
6 | / | -0.9%
7 | -3 | -2.0%
8 | 7 | -0.3%
9 | / | 2.4%
10 | / | 1.6%

The closing 5 compounds of the part above open the next one.
No. | SMILES | miR-21 reporter | Rango dissoc inh
6 | Cc1ccc(CNC(=O)C2CCC(CNS(=O)(=O)c3cccc4cccnc34)CC2)cc1 (stereo not given) | -1% | 14%
7 | CNC(=S)Nc1cc(OC)c(NC(=O)c2ccco2)cc1OC | 1% | 8%
8 | Cc1onc(NC(=O)CSCC(=O)O)c1Br | -1% | 10%
9 | CCN1CCN(c2nc3ccccc3nc2NS(=O)(=O)c2ccc(NC(C)=O)cc2)CC1 | -3% | -6%
10 | CCCc1nnc(SCC(=O)Nc2ccccc2F)o1 | -25% | -7%
11 | Cc1ccc(S(=O)(=O)N2CCN(C(=O)CSc3nc4ccccc4c(=O)[nH]3)CC2)c(C)c1 | -3% | -3%
12 | CCOc1ccccc1OCC(=O)Nc1nc2ccccc2[nH]1 | -14% | 1%
13 | O=C(CCNC(=O)C1CCN(S(=O)(=O)c2ccccc2)CC1)NCc1cccc(Cl)c1 | 10% | 7%
14 | Cn1c2ccccc2c2nnc(NN)nc21 | 0% | ?
15 | O=C(COC(=O)CNC(=O)C1CCCCC1)Nc1ccc(Cl)cc1F | -1% | 0%
16 | COCCn1c(=S)[nH]c2cc(C(=O)NCCc3ccccc3)ccc2c1=O | -5% | 9%
17 | CCC(=O)Nc1cc(-c2nnc(OC)c3ccccc23)ccc1N1CCOCC1 | -8% | -17%
18 | CCn1c(=O)c2cc(C(=O)NCCC(C)C)sc2c2ccccc21 | 1% | 0%
19 | CC(C)(C)NC(=O)CSc1nnc(Cc2ccc3c(c2)OCO3)n1C1CCCCC1 | -5% | 1%
20 | COC(=O)C1C(c2ccc(Br)cc2)Nc2nnc(C(F)(F)F)n2C1(C)O (stereo not given) | 0% | -8%

No. | GLA inh pH 4.5 | Rango complex inh
6 | / | -0.9%
7 | -3 | -2.0%
8 | 7 | -0.3%
9 | / | 2.4%
10 | / | 1.6%
11 | 3 | -5.0%
12 | 4 | 2.9%
13 | / | 1.3%
14 | 2 | -0.3%
15 | 5 | -1.6%
16 | / | -5.3%
17 | 13 | -1.8%
18 | / | -0.3%
19 | 7 | -0.8%
20 | -3 | 0.0%

(listing goes on)
No. | SMILES | miR-21 reporter | Rango dissoc inh
21 | CCOC(=O)c1oc2nc3c(cc2c1N)CCCC3 | -31% | 12%
22 | Cc1cc(Nc2ccccc2)c2c([N+](=O)[O-])c(C)cc(C)c2n1 | -13% | 17%
23 | CCNc1nc(NC(C)C)nc(OCC)n1 | -6% | -8%
24 | CCOC(=O)c1cnc2c(C(=O)OCC)cnn2c1N | -9% | 13%
25 | Cc1c(C(c2cc(O)ccc2Cl)c2c(C)n(C)n(-c3ccccc3)c2=O)c(=O)n(-c2ccccc2)n1C | / | -9%
26 | CC1(C)Cc2ccccc2C(c2cc3ccccc3oc2=O)=N1 | 24% | -7%
27 | CCOc1ccc(N=CC2=C(O)CC(c3ccco3)CC2=O)cc1 (stereo not given) | -3% | -29%
28 | Cc1csc2nc(CN3CCN(CC(=O)N(C)C)CC3)cc(=O)n12 | 1% | -6%
29 | Cc1ccc(N2C(=O)c3cccc([N+](=O)[O-])c3C2=O)cc1C | -2% | 2%
30 | COCc1ccc(C(=O)N2CCCC(Nc3ccc(C(C)C)cc3)C2)o1 (stereo not given) | 7% | 0%

No. | GLA inh pH 4.5 | Rango complex inh
21 | -2 | 5.8%
22 | -5 | 4.0%
23 | -3 | 3.5%
24 | 7 | -0.9%
25 | / | 0.0%
26 | -7 | -1.6%
27 | -10 | ?
28 | / | -0.6%
29 | 5 | 1.8%
30 | / | -1.1%

The list continues:
No. | SMILES | miR-21 reporter | Rango dissoc inh
31 | CCN1C(=O)C(=O)N(CC(=O)NC(C)CCc2ccccc2)C1=O (stereo not given) | / | -7%
32 | O=C1c2ccccc2CN1CCNC(=S)NC1CCCCC1 | -39% | -3%
33 | Cc1ccc(/C=N/NC(=O)CSc2nc3ccccc3n2C)s1 | -15% | -14%
34 | OCCCn1c(-c2ccccc2)n[nH]c1=S | -41% | -12%
35 | CN1C(=O)c2ccccc2C(C(=O)O)C1c1cn(C)c2ccccc12 (stereo not given) | -7% | 0%
36 | CC(Sc1ncn[nH]1)C(=O)c1c(N)n(C)c(=O)n(C)c1=O (stereo not given) | / | 19%
37 | CC1CCCC(C)N1CCCNC(=O)c1cc2c(s1)-c1ccccc1OC2 (stereo not given) | ? | -7%
38 | O=C(NNC(=O)C(c1ccccc1)c1ccccc1)c1cccs1 | -1% | -1%
39 | CN(Cc1ccc([N+](=O)[O-])cc1)c1ccccc1 | / | 1%
40 | COCCOC(=O)C1=C(C)N(Cc2ccccc2)C(=O)NC1c1cccc(OC)c1OC (stereo not given) | 2% | 0%

No. | GLA inh pH 4.5 | Rango complex inh
31 | / | 3.0%
32 | -12 | -1.4%
33 | 1 | -5.4%
34 | -2 | 0.6%
35 | -15 | 2.5%
36 | / | 2.0%
37 | / | -0.1%
38 | -2 | 1.6%
39 | / | 0.5%
40 | -10 | 0.3%

(further entries)
No. | SMILES | miR-21 reporter | Rango dissoc inh
41 | O=C(CNc1ccccc1)NNC1=NCCC1 | -3% | 18%
42 | CCN(CC)CCCN1C=C2C(=O)C(C)(OC(=O)CCC(=O)OC)C(=O)C=C2C=C1C1CC1 (stereo not given) | / | ?
43 | COC(=O)[C@H](Cc1ccccc1)NC(=O)[C@@H]1C[C@H]1[C@@H](NC(=O)OCc1ccccc1)c1ccccc1 | -5% | 3%
44 | CCOC(=O)COn1c(-c2cccc(Cl)c2)nc2ccc([N+](=O)[O-])cc21 | -32% | -11%
45 | O=C(NCCc1nc2ccccc2[nH]1)C1CCC(=O)N(CCc2cccc(F)c2)C1 (stereo not given) | 2% | 5%
46 | COc1ccccc1/C=C/C(=O)NNC(=O)c1cccs1 | -38% | 13%
47 | Cc1ccc(NC2CCCN(C(=O)c3ccccn3)C2)cc1C (stereo not given) | 0% | -6%
48 | Cc1cccc(NC(=O)CCc2nnc3ccc(NCc4ccco4)nn23)n1 | 3% | -20%
49 | O=C(/C=C/c1ccc(OCCCF)cc1)Nc1ccnc(-c2ccncc2)n1 | 22% | -8%
50 | COCCNC(=O)CN(C(=O)CCC(=O)Nc1nccs1)c1ccc2c(c1)OCO2 | 1% | 14%

No. | GLA inh pH 4.5 | Rango complex inh
41 | -2 | -7.5%
42 | 6 | ?
43 | 8 | -0.9%
44 | -2 | -0.4%
45 | / | -3.6%
46 | -10 | -0.3%
47 | / | 0.4%
48 | / | 0.2%
49 | -6 | -5.7%
50 | / | 4.8%

Additional structures
No. | SMILES | miR-21 reporter | Rango dissoc inh
51 | CC(NC(=O)C12CC3CC(C1)CC(n1cncn1)(C3)C2)C12CC3CC(CC(C3)C1)C2 (stereo not given) | 0% | -1%
52 | COCC(C)n1c(SCC(=O)NC(=O)NCc2ccccc2)nc2ccccc2c1=O (stereo not given) | / | -6%
53 | COC(=O)c1cc(OC)c(OC)cc1NC(=O)c1c(-c2ccccc2)noc1C | -4% | 2%
54 | COc1ccc(CC(=O)OC(C)C(=O)Nc2ccc(Cl)cn2)cc1 (stereo not given) | / | 1%
55 | CC1=CC(C)(C)NC(=S)N1c1ccc([N+](=O)[O-])cc1 | / | -3%
56 | COc1ccccc1C(=O)NC(CCSC)C(=O)NNC(=O)C(C)Oc1ccccc1F (stereo not given) | / | 1%
57 | COCCCNC(=O)C[C@H]1C[C@H](C(=O)N2CCOCC2)[C@@]2(CCC3CCCC3)c3[nH]c4cc(-c5ccco5)ccc4c3CCN2C1=O | / | -7%
58 | O=[N+]([O-])c1ccccc1/C=N/NC1=NCCCCC1 | -51% | 11%
59 | Cc1ccc(C)c(S(=O)(=O)Nc2ccccc2C(=O)Nc2cc(C)on2)c1 | 16% | 1%
60 | Cc1ccc(S(=O)(=O)Nc2cccc(Oc3cnccn3)c2)cc1 | 15% | 1%

No. | GLA inh pH 4.5 | Rango complex inh
51 | -18 | -3.6%
52 | / | -1.5%
53 | -11 | 0.3%
54 | / | -0.7%
55 | / | -1.2%
56 | / | -0.1%
57 | / | ?
58 | 10 | -0.1%
59 | 0 | -2.0%
60 | 3 | 0.3%

3 entries out of the list above, ordered by the number in miR-21 reporter, low to high.
| No. | Structure | miR-21 reporter |
| --- | --- | --- |
| 58 | O=[N+]([O-])c1ccccc1/C=N/NC1=NCCCCC1 | -51% |
| 51 | CC(NC(=O)C12CC3CC(C1)CC(n1cncn1)(C3)C2)C12CC3CC(CC(C3)C1)C2 (stereo not given) | 0% |
| 60 | Cc1ccc(S(=O)(=O)Nc2cccc(Oc3cnccn3)c2)cc1 | 15% |

(cont.)
No. | SMILES | miR-21 reporter | Rango dissoc inh
61 | O=C(CCN1CCCCC1)N1CCc2c([nH]c3ccccc23)C1c1cccnc1 (stereo not given) | / | -14%
62 | Cn1c(SCC(N)=O)nnc1-c1ccccc1 | 0% | -4%
63 | O=S(=O)(CC12C3C4C5C1C2C(Br)(C43)C51OCCO1)c1ccccc1 (stereo not given) | -4% | 21%
64 | CCN1CCN(C(=O)c2c(-c3ccccc3)noc2C)CC1 | 2% | -13%
65 | Cc1cc(NC(=O)COC(=O)c2cc(S(=O)(=O)N(C)C)ccc2Cl)no1 | / | -9%
66 | O=C(Nc1ccc(OC(F)F)c(Cl)c1)C(c1ccccc1)c1ccccc1 | ? | 1%
67 | COC(=O)CC1C(=O)NCCN1C(=O)CSc1nnnn1-c1ccc(OC)cc1 (stereo not given) | -2% | 1%
68 | Cc1ccc(Nc2ccc(C(N)=O)cc2[N+](=O)[O-])cc1C | -17% | 27%
69 | C=CCC1(CC=C)CCCN1C(=O)CC1C(=O)NCCN1Cc1cccc(OC)c1OC (stereo not given) | 0% | -3%
70 | C=C1CC(C(=O)N/N=C/c2ccc(O)cc2)C1 | -17% | -3%
71 | O=C(O)c1ccc(Cl)c2c1C1C=CCC1C(c1ccccn1)N2 (stereo not given) | 2% | /
72 | O=C(/C=C/c1ccccc1)OCC(=O)N1CCCC1 | / | 13%

No. | GLA inh pH 4.5 | Rango complex inh
61 | / | 1.6%
62 | 0 | -1.1%
63 | / | 1.0%
64 | / | -0.2%
65 | / | 3.3%
66 | 0 | 1.3%
67 | -7 | -0.7%
68 | 0 | -0.8%
69 | -3 | 0.6%
70 | 1 | -2.3%
71 | -10 | /
72 | / | ?

This is a subset; rates above refer to the full screens.
